Source: PubChem
MgrA-DNA mod – modulators of Staphylococcus aureus MgrA DNA binding; actives 0.13% (n = 84,000); inhibition, %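 (about 10 µg/mL by stock and volumes)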; fluorescence polarization;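 active = above 50% in either of two replicates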;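 note: 0% = protein plus DNA without compound and 100% = DNA alone without protein; higher means less MgrA bound to DNA so lower polarization; one replicate is shown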
S aureus helic – S. aureus DNA helicase inhibition; purified S. aureus helicase, fluorescence unwinding assay; about half of the hits fall short of the stated cut; inhibition, %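 (tested at about 80 µM)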; actives 0.05% (n = 120,000); AID 485395;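 active = both duplicates at 50% or more, or one of them with a favoured structure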;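 note: 0% = mean of negative control wells and 100% = mean of positive control wells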
* marks the source's active call; other numbers are inactive results; x = not tested or not shown; & = joins results of further samples. An excerpt, so the mix of outcomes need not match the whole.

entry	Molecule	MgrA-DNA mod	S aureus helic
1	CC(C)C(=O)Nc1nc(-c2cc3ccccc3oc2=O)cs1	x	-22
2	CN1CCN(S(=O)(=O)c2cccc(C(=O)N3CCN(C/C=C/c4ccccc4)CC3)c2)CC1	x	18
3	O=C(O)c1ccccc1-c1nnc2c(Cl)cc(C(F)(F)F)cn12	1.6	x
4	COc1ccccc1N1C(=O)C(Cc2ccccc2)N=C1N1CCOCC1 (stereo not drawn)	x	10
5	CC(C)(C)CC(=O)NC(C)(C)C	x	-14
6	CSc1nnc(-c2cccc([N+](=O)[O-])c2)o1	3.5	x
7	O=C(COc1ccccc1)NNc1nc2c(F)cccc2s1	x	7
8	Cc1cc(NS(=O)(=O)c2ccc(Cl)s2)no1	2.9	x
9	CC(C)CCN1C(=O)c2ccc(C(=O)OCC#N)cc2C1=O	x	-16
10	c1ccc2c(c1)CC(N1CCCCC1)c1ccccc1N2 (stereo not drawn)	-0.2	-3
11	CCOC(=O)N/N=C/c1cc(Cl)ccc1O	1.6	x
12	COC(=O)C1=C(C(=O)c2ccccc2)C(c2ccc(C(=O)OC)cc2)n2nnnc2N1 (stereo not drawn)	0.0	8
13	O=C(N1N=CCC1c1ccccc1)C12CC3CC(CC(C3)C1)C2 (stereo not drawn)	0.7	-2
14	O=C(O)c1ccc(C2SCCCS2)cc1	x	6
15	CC(=O)Nc1ccc(-c2csc(C)n2)cc1	-0.8	x

More entries follow.
entry	Molecule	MgrA-DNA mod	S aureus helic
16	COc1ccc(Oc2ccc(NC(=O)Cc3cccs3)cn2)cc1	-2.6	x
17	COc1ccc(NC(=O)C2CC2C)c(OC)c1 (stereo not drawn)	x	4
18	Cc1cc(C(=O)CSc2ccc(S(=O)(=O)N(C)C)cn2)c(C)n1-c1ncn[nH]1	x	-12
19	O=C(CSc1nc2ccccc2[nH]1)NCCC1=CCCCC1	-0.8	9
20	CN(C)c1oc(-c2ccccc2)nc1S(=O)(=O)c1ccccc1	x	-3
21	c1ccc(C(N2CCOCC2)N2CCOCC2)cc1	1.9	1
22	O=C(COc1ccc(Cl)cc1Cl)N(c1ccccn1)C1CCCCC1	3.2	20
23	CCC(CC)c1nnc(NC(=O)CS(=O)(=O)Cc2ccccc2)s1	-1.1	11
24	COc1ccc(CCNC2=NCCS2)cc1OC	-0.5	x
25	O=C1c2ccccc2C(Nc2cccc(C(F)(F)F)c2)N1Cc1ccco1 (stereo not drawn)	x	-14
26	CCN(CC)c1nc(C#N)nc(N(CC)CC)n1	x	16
27	NC(=S)NN=C1CCCCC1	-2.6	1
28	O=C1CCCc2c1cc(C(=O)Nc1ccc(Cl)cn1)c(=O)n2-c1ccccc1	-1.4	11
29	O=C(CN1C(=O)COc2ccccc21)Nc1ccc(Cl)cc1	5.6	13
30	c1ccc(-c2nnc(N3CCOCC3)nc2-c2ccccc2)cc1	0.0	x

Brought forward from above: two compounds, then new ones.
entry	Molecule	MgrA-DNA mod	S aureus helic
29	O=C(CN1C(=O)COc2ccccc21)Nc1ccc(Cl)cc1	5.6	13
30	c1ccc(-c2nnc(N3CCOCC3)nc2-c2ccccc2)cc1	0.0	x
31	OCc1cc(CO)c(O)c(CCc2ccccc2)n1	-2.1	1
32	CCOC(=O)c1sc2nc3n(c(=O)c2c1C)CCCCC3	x	-23
33	COc1ccc2oc(=O)c(C(=O)N3CCCCC3)cc2c1	-2.2	3
34	Nc1ccc2nc(SCCOc3ccccc3)sc2c1	-1.5	10
35	CN(Cc1ccccc1)Cc1c(O)ccc2c(=O)c(-c3ccccc3)coc12	2.5	11
36	C/C(=N\O)c1nnn(-c2cc(C(F)(F)F)ccc2Cl)c1C	-1.1	x
37	N#Cc1ccccc1CSc1nnc(COc2ccccc2Cl)n1C1CC1	x	8
38	CC(=O)NCCN=Cc1sc2ccccc2c1O	x	-6
39	O=C(NCc1ccccc1)C12CC3CC(CC(C3)C1)C2	3.1	9
40	CC(=O)N(c1ccc2oc(=O)sc2c1)S(=O)(=O)c1cccs1	x	10
41	CC(=O)N1CC(C)Sc2cc(S(=O)(=O)N(C)c3ccc(C)cc3)ccc21 (stereo not drawn)	0.3	1
42	Cc1c(S(=O)(=O)NCc2ccc3c(c2)OCO3)c(=O)n(C)c(=O)n1C	x	-4
43	Cc1ccc(NC(=O)CCSc2nnc3scc(-c4ccccc4)n23)cc1	x	3
44	CC(C)N(CC(N)=O)C(=O)c1cc2ccccc2o1	x	-3
45	Cc1ccc(S(=O)(=O)NC(C(=O)O)C(C)C)cc1 (stereo not drawn)	-1.1	x

More records follow.
entry	Molecule	MgrA-DNA mod	S aureus helic
46	CC(=O)Nc1ccc(/C=N/NC(=S)NC(C)C)cc1	x	5
47	CCN(CC)C(=O)c1ccc(O)c(OC)c1	1.0	x
48	COc1ccccc1NS(=O)(=O)c1cccc(C(=O)Nn2cnnc2)c1	x	6
49	CCSc1ncccc1C(=O)NC(CCSC)C(=O)O (stereo not drawn)	-2.0	x
50	O=C(Nc1cccc(C(F)(F)F)c1)Nc1cnn2c(C(F)(F)F)cc(C(F)(F)F)nc12	-1.6	x
51	C=CCN1C(=O)/C(=C\c2ccc(C(=O)O)cc2)S/C1=N\c1nnc(C)s1	2.2	-7
52	CC1CCCCN1CC(=O)N1CCN(C(=O)CN2CCCCC2C)CC1 (stereo not drawn)	-6.6	2
53	NC(=O)c1ccc(/C(N)=N/S(=O)(=O)c2cc(C(F)(F)F)cc(C(F)(F)F)c2)cc1	0.4	x
54	Oc1ccc(-n2cncn2)cc1	2.0	x
55	COc1ccc(OC(=O)N2CCOCC2)cc1	-0.2	7
56	CCOc1ccc(CCNC(=O)Cn2nc(C)n3cccc3c2=O)cc1OCC	-2.5	-3
57	CC(=O)Oc1ccc2occ(C(=O)c3cccs3)c2c1	x	4
58	O=C(O)c1ccc(-n2c(-c3ccccc3)cc3c2CCCC3)cc1	2.9	15
59	COc1cc2c(cc1NC(=O)c1cc(C)oc1C)oc1ccccc12	x	4
60	COc1cc(C)c(N)cc1C(C)C	-1.7	2

Remaining list, next part
entry	Molecule	MgrA-DNA mod	S aureus helic
61	O=C(CCN1C(=O)c2cccnc2Sc2ccccc21)N1CCCCC1	x	1
62	COc1cccc(-n2c(=O)c3sccc3n(Cc3ccc(F)cc3Cl)c2=O)c1	1.6	8
63	Cc1ccc(S(=O)(=O)N2CCN(C(=O)CSc3ccccn3)CC2)c(C)c1	x	-10
64	COc1ccc(-c2noc(CC(=O)N(C)c3ccccc3)n2)cc1	-1.6	-2
65	CCOc1cc(=O)oc2ccccc12	-1.4	x
66	C=CCSc1nnc2n(-c3ccccc3)c(=O)c3c(C)c(C)sc3n12	1.8	7
67	COc1ccc2c(=O)c(Oc3ccccc3)c(C)oc2c1C	x	11
68	Cc1c(N=C2C(=O)Nc3ccccc32)c(=O)n(-c2ccccc2)n1C	x	16
69	COc1ccc(OCCN(C)C(=O)c2ccc(-n3cccn3)cc2)cc1	x	-3
70	CC(C)(O)P(C)(=O)c1ccccc1 (stereo not drawn)	0.3	10
71	O=C(CSc1nnc(-c2cccnc2)n1C1CC1)c1c[nH]c2ccccc12	x	-24
72	Nc1nc(S(=O)(=O)c2ccc(Cl)cc2)c(Cl)s1	x	-31
73	C=CCC(C(=O)OC)N1CCOCC1 (stereo not drawn)	-0.9	-6
74	Cc1cc(C)n(-c2nc(N(c3ccccc3)c3ccccc3)nc(-n3nc(C)cc3C)n2)n1	0.4	12
75	CN(C)CCCNc1nc(-c2cccs2)nc2sc3c(c12)CCCC3	x	0

(further entries)
entry	Molecule	MgrA-DNA mod	S aureus helic
76	CCc1nn(CC(=O)NC(C)c2ccc3c(c2)OCCO3)c(=O)c2cc3sc(C)cc3n12 (stereo not drawn)	x	17
77	Cc1onc(-c2c(Cl)cccc2Cl)c1NC(=O)NNc1cc(Cl)ccc1Cl	x	-10
78	O=C(O)Cn1nnc(N2CCCC2)n1	x	-2
79	CCOC(=O)c1[nH]c(C)c(C(=O)NC)c1C	x	-12
80	O=C(CS(=O)(=O)Cc1ccccc1)N1CCCc2ccccc21	-3.5	-10
81	CCCC[n+]1c(C)sc2ccccc21	x	15
82	CCc1ccccc1NC(=O)CN1CCN(C(=O)CCS(=O)(=O)c2ccc(C)cc2)CC1	x	16
83	O=S(=O)(Cc1cccc(C(F)(F)F)c1)Cc1nc(-c2ccc(C(F)(F)F)cc2)cs1	-3.1	x
84	O=C(COc1ccccc1O)Nc1ccccc1	-1.2	-1
85	O=C(/C=C/c1cccs1)OCC(=O)N1CCCC1	-1.2	-3
86	CCCCSc1nnc2c(n1)OC1(CCCCC1)Nc1ccccc1-2	15	x
87	Cc1c(C)c(C)c(CS/C(N)=N/N)c(C)c1C	-0.9	x
88	Cc1cc2cc(CNC(=O)Cc3ccccc3)ccc2[nH]1	x	4
89	CCN1CCCC1CNC(=O)c1ccc2c(c1)NC(=O)c1ccccc1S2 (stereo not drawn)	x	2
90	CCCN1C2=C(C(=O)CCC2)C(c2ccc(O)c(Br)c2)C2=C1CCCC2=O	x	13

New compounds follow.
entry	Molecule	MgrA-DNA mod	S aureus helic
91	Brc1cc2c(cc1CSc1nc3ccccc3o1)OCCO2	x	-13
92	CCOC(=O)c1ccc(-n2nc(C)c(C(=O)OCC)c2C)cc1	x	-3
93	Cc1ccc(N2C(=O)CC3(CCCC3)C2=O)cc1	x	25
94	CC(=O)OC(Cn1ccnc1)c1ccccc1 (stereo not drawn)	x	4
95	CNC(=O)CCCc1nc(-c2ccccc2Cl)no1	x	-10
96	CC(OC(=O)c1oc2ccccc2c1COc1ccccc1)C(N)=O (stereo not drawn)	x	-9
97	CCCNCC(O)COc1ccccc1C(=O)CCc1ccccc1 (stereo not drawn)	-0.5&1.1&-0.4	x
98	Cn1c(=O)c2c(ncn2CCNC2=NCCC2)n(C)c1=O	-0.3	0
99	NS(=O)(=O)c1ccc2nc(NC(=O)c3cccs3)sc2c1	x	-4&6
100	Cc1cc(S(=O)(=O)Oc2c(Cl)cccc2Cl)cc(C)c1F	-1.2	x
101	CN1CCN(CCNC(=O)c2ccc(Cn3c(SCc4ccccc4)nc4cccnc43)cc2)CC1	x	-19
102	COc1cc(/C=N/NC(=O)CC#N)ccc1O	-1.1	x
103	O=C(Nc1cccc(C(=O)O)c1)/C(=C\c1ccco1)NC(=O)c1ccc(Br)cc1	x	-30
104	NC(=O)NCc1ccccn1	x	3
105	COc1cc(C(=O)NCc2cccnc2)ccc1OCc1ccc(Cl)cc1	-1.2	2

Two entries drawn at random from the list so far:
entry	Molecule	MgrA-DNA mod	S aureus helic
97	CCCNCC(O)COc1ccccc1C(=O)CCc1ccccc1 (stereo not drawn)	-0.5&1.1&-0.4	x
96	CC(OC(=O)c1oc2ccccc2c1COc1ccccc1)C(N)=O (stereo not drawn)	x	-9

The listing continues.
entry	Molecule	MgrA-DNA mod	S aureus helic
106	Cc1ccc(S(=O)(=O)c2cnc3ccccc3n2)cc1	1.8	x
107	CCCC(=O)Nc1ncnc2c1ncn2[C@@H]1O[C@@H]2COP(=O)(O)O[C@@H]2C1OC(=O)CCC (stereo partly drawn)	5.4	x
108	CCOC(=O)CSc1nc2nccnc2c(=O)n1Cc1ccccc1	5.2	9
109	Cc1ccc(CNC(=O)Nc2cccc(Cl)c2)n1C	x	26
110	C=CC#CC1(O)CC(C)[N+](C)(C)CC1C (stereo not drawn)	x	-5
111	O=S(=O)(NCCn1ccc2ccccc21)c1ccc(Cl)cc1	x	6
112	Cn1cc(Cl)c(C(=O)NC2CCCC2)n1	x	1
113	COc1ccc(OC)c(CCNC(=O)Cn2nc(Cc3ccncc3)c3ccccc3c2=O)c1	x	2
114	CSc1c(CC(=O)NCCc2ccccc2)n(C)c2ccccc12	-1.4	6
115	CC(C)(C)OC(=O)N1C[C@@H]2C(NC(=O)c3nsc(Cl)c3Cl)[C@@H]2C1 (stereo partly drawn)	0.4	4
116	S=c1nc(-c2ccccc2)[nH]c2c1Cc1ccccc1O2	8.0	19
117	CCOc1ccccc1-n1nnnc1SC(C)C(=O)OC (stereo not drawn)	x	-26
118	CN1CCN(CCCN2c3ccccc3Sc3ccc(Cl)cc32)CC1	0.1&-1.6	x
119	Cc1ccc(Oc2ncccc2NC(=O)C(=S)NCc2ccccc2)c2c1CCC2	0.1	x
120	OC(CN1CCN(Cc2ccccc2)CC1)C(F)(F)F (stereo not drawn)	0.6	x

Individual results from above.
O=C(CN1C(=O)COc2ccccc21)Nc1ccc(Cl)cc1 @ MgrA-DNA mod: 5.6
CCOc1ccccc1-n1nnnc1SC(C)C(=O)OC (stereo not drawn) @ S aureus helic: -26
COc1ccc(-c2noc(CC(=O)N(C)c3ccccc3)n2)cc1 @ S aureus helic: -2
O=C(Nc1cccc(C(F)(F)F)c1)Nc1cnn2c(C(F)(F)F)cc(C(F)(F)F)nc12 @ MgrA-DNA mod: -1.6
CC(=O)N(c1ccc2oc(=O)sc2c1)S(=O)(=O)c1cccs1 @ S aureus helic: 10
COc1ccccc1N1C(=O)C(Cc2ccccc2)N=C1N1CCOCC1 (stereo not drawn) @ S aureus helic: 10

Additional structures:
entry	Molecule	MgrA-DNA mod	S aureus helic
121	C=CCc1c(O)ccc2c(C)cc(=O)oc12	-1.6	x
122	CCC(C)(C)NC(=S)Nc1cccc(OC)c1	1.1	x
123	CCOC(=O)c1cnc2c(C(F)(F)F)cccc2c1Cl	-7.1	-1
124	CCOC(=O)c1c(C)csc1NC(=O)CSc1ccc(Cl)cc1	2.1	x
125	N/C(=N\c1nc2ccccc2o1)NC(=O)c1ccccc1	x	-16
126	O=C(Cc1cccs1)NCC1CCCCC1	x	10
127	O=C(CCc1ccccc1)Nc1ccon1	1.2	10
128	CC(=O)N/C(=C\c1ccccc1)C(=O)Nc1cccc(C#N)c1	-0.1	7
129	CCOC(=O)c1cccc(C(=O)Nc2ccc(Cl)cn2)n1	x	8
130	COc1ccc(-c2csc3ncnc(N4CCC5(CC4)OCCO5)c23)cc1	x	-1
